MARV entry inh: inhibitors of Marburg virus binding or entry into cells | Potency, µM (series often up to 49.2 µM), for inactives: top-dose activity change, negative = inhibition, usual class: inhibitors | AID 720532 | 6.5% of 18,000 active | Marburg virus pseudotype entry/binding inhibition, cell-based; control for the full effect not named in the record; many of its hits are not listed in these tables; active means well fitted inhibition curve with a large enough effect; inconclusive means small, poorly fitted or top-dose-only effect; inactive means no such curve, though single readings can be large or run the other way; tested in HEK293 cells; note: luciferase read-out
LASV entry inh: inhibitors of Lassa virus binding or entry into cells; Lassa virus pseudotyped entry inhibition, cell-based qHTS; control for the full effect not named in the record; many of its hits are not listed in these tables; Potency, µM (titrated, usually from 49.2 µM), inactives show at the top dose activity change, negative = inhibition, most hits filed as inhibitors; 4.1% of 18,000 active; active = well fitted inhibition curve with a large enough effect; inconclusive = small, poorly fitted or top-dose-only effect; inactive = no such curve, though single readings can be large or run the other way; tested in HEK293 cells; note: luciferase read-out
Active calls of the source: *; ? = inconclusive; . = no result given; & = joins results of further samples; [ ] = dose if it differs, or a comment. % is set by controls: 0 for no effect and ±100 for the full control effect; potency is the fitted concentration of half-maximal effect. An excerpt; count on the stated rates, not on these rows.

| Molecule | MARV entry inh | LASV entry inh |
| --- | --- | --- |
| CC1C(=O)N(Cc2cn(CC3CCCCC3)nn2)CCS(=O)(=O)N1Cc1ccc(-c2cccc(CO)c2)cc1 (stereo not given) | ? | . |
| CCCCCCCCCCC/C=C\C(C)(C)/C=C\CCCC(=O)O | 14.2%&3.8% | 3.3%&-0.7% |
| Cc1c(C(=O)NCCCc2ccncc2)cnn1-c1nccc(-c2ccccc2F)n1 | ? | -11.7% |
| C[C@H]1CCC[C@H](O)CCCCCc2cc(O)cc(O)c2C(=O)O1 | 13.7% | -25.7% |
| COc1ccccc1CC(Cc1nc2ccccc2[nH]1)c1nc2ccccc2[nH]1 (stereo not given) | ? | -21.7% |
| CCOC(=O)CN1C(=O)NC(c2cccc(C(F)(F)F)c2)C(C(C)=O)=C1C (stereo not given) | 31.1%[activator][8.59 µM] | 6.5%[8.59 µM] |
| CC(C)(CO)Cc1cc(C(C)(C)C)c(O)c(C(C)(C)C)c1 | -24.9% | ? |
| CC[C@@H]1OC(=O)[C@@H](C)[C@H](O[C@H]2C[C@@](C)(OC)[C@@H](O)[C@H](C)O2)C(C)[C@H](O[C@H]2O[C@@H](C)C[C@@H](N(C)C)[C@@H]2O)[C@@](C)(O)C[C@H](C)C(=O)[C@@H](C)[C@H](O)[C@@]1(C)O (stereo not given in full) | ? | 0.3% |
| CN(Cc1ccccc1)c1cc2c(c3c1ccn3C)C1CCC2O1 (stereo not given) | -7.6% | -9.2% |
| COc1cc(C(=O)OC2C[C@H]3CC[C@@H](C2)N3C)ccc1O (stereo not given in full) | 5.5%[17.8 µM] | 2.2%[17.8 µM] |
| COc1ccc2c(c1)C(=O)N(CCc1ccc(S(=O)(=O)NC(=O)NC3CCCCC3)cc1)C(=O)C2(C)C | -4.1%[17.8 µM] | -3.5%[17.8 µM] |
| O=C1N[C@@H](Cc2ccccc2)C(=O)N2CCCC12 (stereo not given in full) | -3.8%[107 µM] | -2.2%[107 µM] |
| CC(=O)C1=C(O)C=C2Oc3c(C(C)=O)c(O)c(C)c(O)c3C2(C)C1=O (stereo not given) | 3.4% | -11.9% |
| CC[C@H]1C(c2cccc(C)c2)=NN(c2ccccc2)[C@@H]1CO | 12.2% | -12.1% |
| CC(C)(Cc1c[nH]c2ccc(Cl)cc12)NCCOc1ccccc1OCC1CC1 | 8.91µM* | 28.2µM* |
| O=c1cccc2n1CC1CC2CN(CCO)C1 (stereo not given) | -1.1% | -1.1% |
| CCn1cc(CN2CCOc3ccc(C(O)C4CCCCC4)cc3C2)c(C)n1 (stereo not given) | -12.7% | 9.7% |
| COc1ccc(CCNc2ncnc3sc(C(=O)N(C)C)c(C)c23)cc1OC | ? | 3.2% |
| NC(N)=Nc1ccc(Cl)cc1 | 1.2% | 5.4% |
| CC(C)C1C(=O)N(Cc2cn(Cc3ccco3)nn2)CCS(=O)(=O)N1Cc1ccc(-c2ccc(Cl)c(Cl)c2)cc1 (stereo not given) | ? | ? |

Exported with each value named: part of the list above
SMILES: CC(C)(Cc1c[nH]c2ccc(Cl)cc12)NCCOc1ccccc1OCC1CC1
  MARV entry inh: 8.91µM*	LASV entry inh: 28.2µM*
SMILES: O=c1cccc2n1CC1CC2CN(CCO)C1 (stereo not given)
  MARV entry inh: -1.1%	LASV entry inh: -1.1%
SMILES: CCn1cc(CN2CCOc3ccc(C(O)C4CCCCC4)cc3C2)c(C)n1 (stereo not given)
  MARV entry inh: -12.7%	LASV entry inh: 9.7%

Additional structures follow.
| Molecule | MARV entry inh | LASV entry inh |
| --- | --- | --- |
| O=C1c2ccccc2C(=O)c2c1ccc(O)c2O | 8.5%&10.3% | -2.6%&1.2% |
| Cc1ccc2oc(-c3ccccc3)cc(=O)c2c1 | 1.4% | 4.7% |
| O=C(CCc1ccc(O)cc1)c1c(O)cc(O)cc1O[C@@H]1O[C@H](CO)[C@@H](O)[C@H](O)[C@H]1O | -10.6% | -10.0% |
| Clc1ccc(C2(Cn3cncn3)OCCO2)c(Cl)c1 | -10.2% | -19.3% |
| C[C@]1(OC(=O)/C=C\c2ccccc2)C[C@@H](O)[C@@]2(O)C=CO[C@@H](O[C@H]3O[C@@H](CO)[C@@H](O)[C@@H](O)[C@@H]3O)[C@H]21 | -17.9%[17.8 µM] | -17.1%[17.8 µM] |
| CC(C)C1C(=O)N(Cc2cn(CCC3OCCCO3)nn2)CCS(=O)(=O)N1Cc1ccc(-c2ccc(F)cc2)cc1 (stereo not given) | ? | -20.8% |
| CN1C(=O)CC[C@H]1c1cccnc1 | 8.6% | 14.2% |
| CCOC(=O)C1OC1C(=O)N[C@@H](CC(C)C)C(=O)NCCC(C)C (stereo not given in full) | 5.01µM* | -4.2% |
| COC/C=C/C1=CC2=CC(=O)C(C)(OC(=O)CCC(=O)OC)C(=O)C2=CO1 (stereo not given) | -21.9% | 12.6% |
| CCCCC/C=C\C/C=C\CC1OC1C/C=C\CCCC(=O)O (stereo not given) | 1.0%&13.6% | 5.5%&1.1% |
| CCCCOc1cc(C(=O)NCCN(CC)CC)c2ccccc2n1 | ? | ? |
| Cc1ccn(CCC(=O)N2CCOc3ccc(C(O)C4CCCCC4)cc3C2)n1 (stereo not given) | ? | 8.4% |
| O=C1C2CCC(C2)[C@@H]2CCCCN12 (stereo not given in full) | 8.0%[107 µM] | -4.5%[107 µM] |
| C[N+](C)(CCOc1ccccc1)Cc1cccs1 | 13.4% | -16.8% |
| Cc1cccc(CNc2ncnc3ccc(-c4cccc(C#N)c4)cc23)c1 | -16.4% | ? |
| Cc1ccc(S(=O)(=O)N2CCC(=O)N([C@H](COCc3cccc(Cl)c3)C(C)C)CC2)cc1 | -11.7% | 9.1% |
| Cc1cc2c(c(=O)n1-c1ccccc1)[C@H]1O[C@](c3ccsc3)(Cc3cc(C#N)ccc31)O2 | -12.1%[8.59 µM] | 3.9%[8.59 µM] |
| CSc1ccccc1C(=O)NCC1Cc2cc(F)cc(-c3cnccn3)c2O1 (stereo not given) | -5.5% | -9.9% |
| Cc1cc2nc3c(=O)[nH]c(=O)nc-3n(CC(O)C(O)C(O)CO)c2cc1C (stereo not given) | -6.0% | 3.0% |
| COc1cc(C2=N/C(=C\c3ccccc3)C(=O)O2)cc(OC)c1OC | 15.4% | -2.0% |
| O=C[C@@H]1CCCN1C(=O)[C@@H]1CCCN1C(=O)OCc1ccccc1 | 2.0% | 0.8% |
| CC/C=C\C/C=C\C/C=C\C/C=C\C/C=C\CCCC(=O)NCC(=O)O | -3.7% | 2.1% |
| C=CCNC(=O)N1CCc2nc(-c3ccc(OC)cc3C)c3c(c2C1)CO[C@@H](c1ccccc1)C3 | -42.2%[8.59 µM] | 5.5%[8.59 µM] |
| CN1C(=O)CCS(=O)(=O)[C@@H]1c1ccc(Cl)cc1 | ? | -5.6%[17.8 µM] |
| COc1ccc(CNc2nc(-c3ccc(C(=O)N(C)C)cc3)nc3ccccc23)c(OC)c1 | 4.6% | ? |
| O=C1[C@@H]2[C@H]3[C@H](O)[C@H](O)CC(=NOC[C@@H](O)COCc4ccco4)[C@H]3CC[C@H]2C(=O)N1c1ccc(F)cc1F | 14.1%[8.59 µM] | 11.7%[8.59 µM] |
| Cc1[nH]c(/C=C2\C(=O)Nc3ccc(S(=O)(=O)N(C)c4cccc(Cl)c4)cc32)c(C)c1C(=O)N1CCN(C)CC1 | 10µM* | ? |
| O=C(OCc1cn([C@H]2C[C@H](c3ccc(Cl)cc3)N(C(=O)c3cccs3)C[C@H]2O)nn1)c1ccccc1 | -22.1% | . |
| COC(=O)c1ccccc1-c1cc(C)cc2c1OC(CNC(=O)c1occc1C)C2 (stereo not given) | ? | ? |
| C[C@@H]1N[S+](=O)([O-])c2ccc(F)cc2O[C@H]1c1ccccc1 | ? | 9.4% |
| COCc1c(C(=O)N2CCN(C3CCCC3)CC2)cnn1-c1nccc(-c2cc(C)sc2C)n1 | 8.6% | -15.9% |
| CCCCc1c(O)n(-c2ccccc2)[nH]c1=O | -2.4% | 10µM* |
| O=C(O)CC/C=C\C[C@@H]1CO[C@H](c2ccccc2Cl)O[C@@H]1c1ccccc1O | -12.8% | 8.0% |
| CCCCC[C@H](O)/C=C/C=C\C/C=C\CCCCCCC(=O)O | 5.0% | -5.2% |
| CC(C)[C@H](O)CC[C@@H](C)C1CC[C@H]2C3CC=C4C[C@@H](O)CC[C@]4(C)C3CC[C@]12C (stereo not given in full) | -1.4%&15.1% | -0.5%&0.8% |
| CC(=O)Nc1ccc(OC(=O)c2ccccc2O)cc1 | 18.3% | -4.1% |
| O=C(NCCc1ccccn1)C1CC12CCN(C(=O)c1cccc(C(F)(F)F)c1)CC2 (stereo not given) | ? | -6.6% |
| O=c1[nH]c(=O)n([C@H]2C[C@H](O)[C@@H](CO)O2)cc1I | -17.0%[17.8 µM] | -10.8%[17.8 µM] |
| C=CS(=O)(=O)N[C@H](C)c1ccccc1 | ? | . |
| Cc1c(Cl)cccc1Nc1ccccc1C(=O)O | 15.6% | ? |

Brought forward from above: 3 compounds, followed by the next part.
| Molecule | MARV entry inh | LASV entry inh |
| --- | --- | --- |
| O=c1[nH]c(=O)n([C@H]2C[C@H](O)[C@@H](CO)O2)cc1I | -17.0%[17.8 µM] | -10.8%[17.8 µM] |
| C=CS(=O)(=O)N[C@H](C)c1ccccc1 | ? | . |
| Cc1c(Cl)cccc1Nc1ccccc1C(=O)O | 15.6% | ? |
| COCC=CC1=CC2=CC(=O)C(C)(OC(=O)c3cnc4ccccc4n3)C(=O)C2=CN1CC1CC1 (stereo not given) | 58.0%[8.59 µM] | 13.0%[8.59 µM] |
| CC1CN(CC(=O)N2CCN(Cc3nccn3C)CC2)Cc2cc(Cl)ccc2O1 (stereo not given) | 7.0% | -6.9% |
| COc1ccc(CN(C)CCn2cc(C(=O)N3CCSCC3)nn2)cc1C | 6.3% | -12.0% |
| COc1cc2c(cc1OC)C1(O)C(=O)c3ccc(O)c(C(=O)O)c3OC1CO2 (stereo not given) | 2.6% | 12.5% |
| COc1ccc2oc(-c3ccccc3)c(OC)c(=O)c2c1 | 42.5%[activator] | -6.3% |
| COc1ccc(-c2cc(=O)c3ccccc3o2)cc1 | 8.9% | 47.8%[activator] |
| COC(=O)C1=C(C)N(Cc2ccco2)C(=O)NC1c1ccc(Br)cc1 (stereo not given) | ? | . |
| COP(=S)(OC)Oc1ccc(S(=O)(=O)N(C)C)cc1 | 18.5% | 2.2% |
| NS(=O)(=O)c1cc2c(cc1Cl)NC(Cc1ccccc1)NS2(=O)=O (stereo not given) | 9.9% | 4.7% |
| NS(=O)(=O)c1ccc(Nc2cc(-c3ccc(O)c(F)c3)[nH]n2)cc1 | -26.6% | 39.4% |
| C[C@H](c1ccccc1)N1C[C@@H](COCc2ccccc2)Oc2cccc(Oc3ccc(F)cc3)c2S1(=O)=O | ? | ? |
| COc1ccc(C2=C(N3CCc4ccccc43)C(=O)NC2=O)cc1 | 28.3% | -26.5% |
| Cc1cccc(CNC(=O)c2cnn(-c3nccc(-c4cccs4)n3)c2C(C)C)n1 | -26.1% | -22.9% |
| CCN(CCCCO)c1nc(C)nc2c1c(C)c(C)n2-c1c(C)cc(C)cc1C | ? | ? |
| CC1(C)CN(Cc2cccnc2)C(=O)[C@@H]1CC(=O)Nc1ccc(Br)cc1 | ? | 10.1% |
| COc1cc(OC)c(C(=O)CCCN2CCCC2)c(OC)c1 | 5.7%[17.8 µM] | -5.7%[17.8 µM] |
| CC(=O)Oc1ccc2c(c1OC(C)=O)OCC1(O)Cc3c(cc(OC(C)=O)c(OC(C)=O)c3OC(C)=O)C21 (stereo not given) | 7.94µM* | -18.9% |
| COc1cc(O)c2c(c1)O[C@H](c1ccccc1)CC2=O | 7.1% | 3.4% |
| C[N+]1(C)[C@@H]2CC(OC(=O)C(O)(c3cccs3)c3cccs3)C[C@H]1[C@@H]1O[C@@H]12 (stereo not given in full) | 10.8% | -3.1% |
| CCC1CN(CCNC(=O)c2ccccc2-n2cccn2)Cc2cc(OC)ccc2O1 (stereo not given) | -8.2% | -10.7% |
| Oc1ccc2c3c1O[C@H]1[C@@H](O)C=C[C@H]4[C@H](C2)NCC[C@@]341 | -12.1% | -10.3% |
| CCN(CCNC(=O)[C@H]1C=C(OC)C(=O)C[C@@H]2c3ccccc3C[C@]12C)C(C)=O | 0.4%[8.59 µM] | -18.8%[8.59 µM] |
| COC(=O)C1=C(C(=O)OC)[C@@H]2N(C)c3ccccc3[C@@]23C[C@@H](C(=O)OC)N(C(=O)c2ccc(Br)cc2)C3=N1 | -14.2%[8.59 µM] | ? |
| CC(C)C[C@H](NC(=O)[C@H](C)NC(=O)CNC(=O)[C@H](CCCCN)NC(=O)[C@H](CCCN=C(N)N)NC(=O)[C@H](C)NC(=O)[C@H](Cc1ccccc1)NC(=O)[C@@H](N)CCCN=C(N)N)C(=O)N[C@@H](CCCN=C(N)N)C(=O)N[C@@H](CCC(N)=O)C(=O)N[C@@H](CCCCN)C(=O)N[C@@H](CC(N)=O)C(=O)N[C@H](C(N)=O)C(C)C | -9.3% | 2.0% |
| c1cncc(OC2CCN(Cc3ccc4c(c3)CN(Cc3ccc5c(c3)CCO5)CCO4)CC2)c1 | ? | -10.7% |
| CC(=O)OC1CC(OC(C)=O)[C@]2(C)C(CC(=O)[C@]3(C)C2CC[C@@]2(C)C(C(=O)O)OC(=O)C4OC423)C1(C)C (stereo not given in full) | 14.2% | -12.9% |
| CC=COC(=O)N[C@@H](c1ccccc1)[C@]1(C(C)=O)CCOC1=O | 6.8%[8.59 µM] | 24.4%[8.59 µM] |
| COc1ccc2ncnc(Nc3ccc(OCc4ccccc4)cc3)c2c1 | ? | . |
